Screens (PubChem)
AID923 = qHTS Assay for Allosteric/Competitive Inhibitors of Caspase-1: Spectroscopic Profiling in AFC Spectral Region; compound fluorescence, AFC spectral region (405/520 nm); almost no hit is shown here; Potency, µM (highest dose often 57.5 µM), for the others: at the highest dose fluorescence increase, most hits filed as activators; 1.1% of 75,000 active; AID 923, 2007; active = well fitted activation curve with a large enough effect; inconclusive = small, poorly fitted or top-dose-only effect;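 note: potency is the fitted concentration of half-maximal effect; 0% is about no effect; scaled to a free AFC standard on each plate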
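Titrations up to 57 uM read every 20 sec for 3 min (405/520 nm) with 50 nM caspase 1 and 5 uM Ac-WEHD-AFC, pH 7.5 HEPES buffer. Fluorescence-vs-time intercept gave baseline, scaled against on-plate AFC standard.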
Resorufin autofl = compound fluoresces in the resorufin spectral region; Compound fluorescence, resorufin region 547/598 nm, buffer; stronger effect = higher value; 0.04% of 59,000 active; AID 588; max dye-equivalent concentration, M; active = above 10 nM dye equivalent; inconclusive = 1 to 10 nM; inactive = 1 nM or less; a few of its hits are not listed in these tables; note: highest value over a series up to 38 µM
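Intrinsic fluorescence profiled in the resorufin window (ex 547 nm, em 598 nm) after 15 min at room temperature in pH 8.0 Tris buffer (100 mM); responses normalized against a six-point resorufin standard series as dye-equivalent concentration.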
A647 autofl = compound fluoresces in the A647 spectral region; Compound fluorescence, A647 channel (570/671 nm), Tris buffer; 59,000 tested, under 10 active; max dye-equivalent concentration, M; active means above 1 µM dye equivalent; inconclusive means 0.1 to 1 µM; inactive means 0.1 µM or less;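 note: values scaled relative to a standard on each plate; highest value over a series up to 38 µM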
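Buffer was dispensed, compounds and Alexa 647 standards were pin-transferred, and plates sat 15 min at room temperature. Intensity at 570/671 nm was then converted to dye-equivalent concentration using the plate's A647 standard curve.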
TSHR agonist = TSH receptor (human) agonism; P16473; HEK293-CNG-TSHR cells (CNG channel as cAMP sensor), membrane potential dye, cAMP; Potency, µM (series often up to 57.1 µM), inactives show top-dose activation, actives largely listed as activators; 0.48% of 73,000 active; AID 926; active = well fitted activation curve of enough size with the parental cells flat; inconclusive = any curve in the parental cells; inactive = parental cells flat and receptor cells flat or falling; note: potency is the fitted concentration of half-maximal effect; % of control where 0% means no effect; weak receptor curves with flat parental cells got no call and are not listed
Target sequence (P16473 whole entry, looked up): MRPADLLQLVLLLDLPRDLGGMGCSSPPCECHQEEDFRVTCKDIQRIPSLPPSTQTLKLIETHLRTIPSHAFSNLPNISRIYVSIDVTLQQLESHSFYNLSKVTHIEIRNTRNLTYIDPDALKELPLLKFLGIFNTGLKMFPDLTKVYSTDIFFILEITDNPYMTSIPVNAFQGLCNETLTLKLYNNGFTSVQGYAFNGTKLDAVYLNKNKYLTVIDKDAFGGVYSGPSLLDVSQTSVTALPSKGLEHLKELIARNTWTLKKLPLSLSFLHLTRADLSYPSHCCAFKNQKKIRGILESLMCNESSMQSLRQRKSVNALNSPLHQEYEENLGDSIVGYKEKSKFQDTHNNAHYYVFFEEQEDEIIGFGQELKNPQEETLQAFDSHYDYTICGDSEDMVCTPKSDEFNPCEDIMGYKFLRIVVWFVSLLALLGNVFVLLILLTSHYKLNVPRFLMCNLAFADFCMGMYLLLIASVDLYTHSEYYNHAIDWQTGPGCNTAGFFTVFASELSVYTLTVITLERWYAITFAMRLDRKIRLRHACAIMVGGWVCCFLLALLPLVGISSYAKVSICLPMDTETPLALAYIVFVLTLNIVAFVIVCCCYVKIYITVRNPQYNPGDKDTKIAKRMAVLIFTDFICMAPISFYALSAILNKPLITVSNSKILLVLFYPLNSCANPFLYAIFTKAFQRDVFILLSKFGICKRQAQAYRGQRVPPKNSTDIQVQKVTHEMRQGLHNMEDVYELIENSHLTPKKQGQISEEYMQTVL
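HEK 293 cells stably expressing TSHR and a cAMP-gated CNG channel; parental CNG-only cells as counterscreen. Cells preloaded 60 min with membrane potential dye plus 100 uM RO 20-1724, then compound 30 min; fluorescence read at 590 nm.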
A488 fluor = A488 region autofluorescence; compound autofluorescence, A488 spectral region, dye equivalency; stronger effect = higher value; max dye equivalency, M; 0.1% of 59,000 active; active = above 10 nM dye equivalent; inconclusive = 1 to 10 nM; inactive = 1 nM or less; about half of its hits are not listed in these tables;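 note: highest value over a series up to 38 µM; compound alone in buffer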
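Intrinsic compound fluorescence is measured in 100 mM Tris buffer at pH 8.0 following 15 min incubation at room temperature. Intensities at 480 nm excitation/540 nm emission are calibrated to an on-plate A488 concentration series, giving dye-equivalent concentrations.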
* = called active by the depositor; i = inactive; ? = inconclusive; / = not tested or not shown; & = joins results of further samples; [ ] = remark or other dose. Some of the compounds tested (hit frequency here may not be typical).

SMILES	AID923	Resorufin autofl	A647 autofl	TSHR agonist	A488 fluor
O=C(c1ccccc1F)N(Cc1ccc(F)cc1)C1CCS(=O)(=O)C1 (stereo not drawn)	3.4%	i	1e-09	-3.1%	i
O=C(NCc1ccc2c(c1)OCO2)C1CCC(CNc2c(N3CCCCC3)c(=O)c2=O)CC1 (stereo not drawn)	-1.0%	/	/	1.3%	/
CN1CC(=O)N/C1=N/C(=O)Nc1cccc(Cl)c1	-4.5%	/	/	8.1%	/
CCn1cc(C2=NOC(C(=O)Nc3cccc(C(C)=O)c3)C2)c(C)n1 (stereo not drawn)	1.3%	/	/	3.6%	/
CN(C)C(CNC(=O)CN1C(=O)NC2(CCc3ccccc32)C1=O)c1ccco1 (stereo not drawn)	0.1%	i	1.1e-09	0.2%	i
COC(=O)c1[nH]c2cccc(Cl)c2c1NC(=O)CN1CCN(CCO)CC1	1.2%	i	2.38e-08	-6.3%	i
COc1ccc(OC)c(N=C(C)C2=C(O)COC2=O)c1	/	i	1.2e-09	/	i
c1ccc(C2=Nn3c(nnc3-c3cccnc3)SC2)cc1	2.5%	i	6.9e-09	-10.3%	i
COc1ccc(NC2CS(=O)(=O)CC2OC(=O)c2ccc(F)cc2)cc1 (stereo not drawn)	-0.1%	i	1e-09	-1.4%	i
O=C(Cc1ccccn1)Nc1ccccc1	0.8%	i	1e-09	2.0%	i
O=c1c2c([nH]c3ccc(Br)cc13)CCCC2	-1.4%	i	1e-09	21.7%	i
O=C(c1ccc(Cc2nc3ccccc3[nH]2)cc1)N1CCCCC1	1.9%	/	/	1.0%	/
COc1ccccc1N1CCN(CC(=O)c2c(C)[nH]c3cc(C)ccc23)CC1	-0.6%	i	3.01e-08	4.8%	i
CC(C)Cc1cc(C(=O)NCCCN2CCOCC2)no1	1.9%	/	/	2.0%	/
NS(=O)(=O)c1ccc(CCNC(=O)c2ccccc2F)cc1	-1.1%	i	4.57e-08	1.2%	i
CC(C)C12CN3CC(C(C)C)(CN(C1)C3c1ccccc1O)C2=O (stereo not drawn)	-1.7%	/	/	?	/
COCCCN1C(=O)C(=O)/C(=C(/O)c2ccc(OCC(C)C)cc2)C1c1cccnc1 (stereo not drawn)	0.2%	i	6.9e-09	1.0%	i
Cc1onc(-c2ccccc2)c1C(=O)Nc1cccc(OC(C)C)c1	0.4%	i	3.32e-08	?	i
COc1ccc(NC(=O)N2CCCC2)cc1OC	1.6%	i	1e-09	-1.2%	i
Cc1nc(N2CCN(C(=O)c3ccco3)CC2)c2c3c(sc2n1)CCC3	-1.2%	i	6.1e-08	/	i
COc1ccc(C(=O)CSc2nc3nc(C)cc(C)n3n2)cc1OC	2.5%	i	1e-09	1.5%	i
O=C(c1cncc(Br)c1)N1CCN(c2ccc(N3CCOCC3)nn2)CC1	12.2%	/	/	-7.8%	/
CC(=O)C1=C(C)Nc2ncnn2C1c1ccc(Cl)cc1 (stereo not drawn)	0.0%	i	1e-09	0.9%	i
CCOC(=O)CNC(=O)Cn1c(C)cc2ccccc2c1=O	-0.4%	i	1e-09	-0.5%	i

Structural class, the compounds so far containing bromine
SMILES	AID923	Resorufin autofl	A647 autofl	TSHR agonist	A488 fluor
O=c1c2c([nH]c3ccc(Br)cc13)CCCC2	-1.4%	i	1e-09	21.7%	i
O=C(c1cncc(Br)c1)N1CCN(c2ccc(N3CCOCC3)nn2)CC1	12.2%	/	/	-7.8%	/

(further entries)
SMILES	AID923	Resorufin autofl	A647 autofl	TSHR agonist	A488 fluor
CN(C(=O)c1ccno1)c1nnc(-c2ccccn2)s1	0.1%	i	3e-09	2.1%	i
CCOc1cccc2cc(C(=O)N3CCc4ccccc43)c(=O)oc12	-0.6%	?	1e-09	8.2%	i
Cc1cc(C)c2c(=O)n(CC(=O)NCCCN3CCN(c4ccccc4F)CC3)sc2n1	2.4%	/	/	2.3%	/
CCOP(=O)(c1ccccc1)c1nc(-c2ccc(F)cc2)oc1N1CCCCC1 (stereo not drawn)	/	i	7.44e-08	/	i
COCCCNc1nc2c(c(=O)[nH]c(=O)n2C)n1CC(O)COc1ccccc1 (stereo not drawn)	/	i	1e-09	/	i
Cc1cc(NC(=O)CSc2nnc(-c3ccc4c(c3)OCCO4)o2)no1	-0.2%	i	4.44e-08	?	i
CCNc1ncc2nc(CCc3ccccc3)c(=O)n(C[C@H]3CCCO3)c2n1	18.2%	i	2.88e-08	14.9%	i
CC(C)N(CCNC(=O)c1ccc(Cc2nc3ccccc3[nH]2)cc1)C(C)C	0.0%	/	/	-3.8%	/
c1cc2c(cc1C1CCCCC1)c1c3n2CCN[C@H]3CCC1	-3.6%	/	/	2.2%	/
COCCNC(=O)CN(C(=O)CCC(=O)Nc1cc(C)on1)c1ccc(C)cc1C	0.2%	i	2.5e-09	?	i
O=C(O)CCc1ccc(-c2ccccc2)n1-c1cccc(O)c1	0.7%	i	1.37e-08	4.8%	i
COc1cc(C(=O)Nc2ccc(-c3nc4cc(C)ccc4o3)c(O)c2)cc(OC)c1OC	0.2%	i	1.4e-09	7.9%	i
COc1ccc(C(=O)n2nc(C)cc2C)cc1OC	0.1%	i	1e-09	0.8%	i
Cc1nc2c(s1)sc1ccccc12	-0.3%	i	1.39e-08	2.2%	i
O=C(CSc1ccccc1)Nc1ccncc1	-0.2%	i	2.9e-09	0.8%	i
CCOC(=O)N1CCN(C(=O)c2ccc3c(=O)n(CCC4=CCCCC4)c(=S)[nH]c3c2)CC1	-3.1%	/	/	6.1%	/
CC(=O)OCCNC(=O)c1cc2ccccc2oc1=O	1.9%	i	3.31e-08	7.9%	i
C[C@@H](C(=O)NCC1CC1)[C@H]1C[C@]1(C)[C@H](NC(=O)OCc1ccccc1)c1ccccc1	-0.1%	/	/	?	/
C/C=C(\CS(=O)(=O)c1ccccc1)S(=O)(=O)c1ccccc1	-0.4%	i	5.45e-08	1.7%	i
CC1(C)Cc2c(c(-c3ccccc3)[nH]c(=O)c2C#N)CS1	/	i	3.7e-09	/	i
Cc1cc(N(C)C)c(C#N)c(=O)[nH]1	0.5%	i	2.56e-08	-2.6%	i
CCCc1nnc(SCc2ccc(OC)cc2)n1N	1.8%	i	3.07e-08	?	i
O=C(Nc1ccc(C(=O)N2CCOCC2)cc1)c1cccs1	-0.6%	i	1.1e-09	-5.0%	i
CCOC(=O)C1CCN(C(c2cc3cc(C)cc(C)c3[nH]c2=O)c2nnnn2C2CCCCC2)CC1 (stereo not drawn)	2.7%	i	1e-09	5.7%	i
c1ccc2c(c1)oc1c(NCCCN3CCOCC3)ncnc12	1.1%	i	2.95e-08	?	i
COC(=O)Cn1cnc(=O)c(C#N)c1/C=C/N(C)C	1.1%	/	/	-3.5%	/
COc1ccc(Cl)cc1N1CC(C(=O)Nc2nccs2)CC1=O (stereo not drawn)	-2.1%	i	1.29e-08	-2.4%	i
c1ccc(-c2nc3nonc3nc2-c2ccccc2)cc1	3.4%	i	3.25e-08	-8.0%[11.4 µM]	i
O=C(C1CCCN(S(=O)(=O)c2cccc3cccnc23)C1)N1CCN(c2ccc(F)cc2)CC1 (stereo not drawn)	2.1%	/	/	5.2%	/
Cc1csc2ncc(C(=O)NCc3ccccc3Cl)c(=O)n12	-3.1%	/	/	0.5%[11.4 µM]	/
C=CCn1c(COc2ccc(Cl)cc2)nnc1SCC(=O)N1CC(=O)Nc2ccccc21	0.4%	i	1e-09	0.3%	i
Cc1ccc(-c2nnn(CC(=O)N(c3ccccc3)C(C(=O)NC3CCCC3)c3ccco3)n2)o1 (stereo not drawn)	-2.3%	i	1e-09	-3.8%	i
Cc1ccc2nc(SC(C)C(=O)N3CCCC3)[nH]c2c1 (stereo not drawn)	1.4%	i	1.1e-08	-0.8%	i
COC(=O)C/C=C\[C@@H](C)[C@@H](/C=N\OC[C@@H](O)COCc1ccco1)OC	-1.1%[11.5 µM]	/	/	3.5%[11.4 µM]	/
CO[C@H]1COC(=O)[C@@H](C)COC(=O)[C@@H](Cc2ccccc2)NC(=O)C/C=C\[C@H]1C	-3.4%[11.5 µM]	/	/	3.9%[11.4 µM]	/
Cc1c(NC(=O)C(C)Oc2ncnc3ccccc23)c(=O)n(-c2ccccc2)n1C (stereo not drawn)	-1.3%	i	5.35e-08	-3.3%	i
CC(C)N(Cc1nc(-c2ccccc2)no1)C(=O)CCCN1C(=O)c2ccccc2C1=O	1.2%	i	1e-09	11.3%	i
O=c1cc(NCc2ccco2)[nH]c(=O)n1-c1ccc(Br)cc1	1.5%	i	1e-09	-4.2%	i
COc1ccccc1-n1cnnc1SC1CCOC1=O (stereo not drawn)	0.5%	i	1e-09	-7.4%	i
O=C(OCc1cc2ccccc2[nH]c1=O)c1ccncc1	-1.5%	i	2.64e-08	0.4%	i
c1ccc2c(CCNc3ncnc4nc[nH]c34)c[nH]c2c1	-3.7%	/	/	-7.6%	/
CSC1=C(C#N)C(c2ccc(C)cc2)C2=C(CCCC2=O)N1 (stereo not drawn)	2.6%	i	4.34e-08	-7.9%	i
Cc1cccc(NC(=O)c2cc(NC(=O)C3CCCCC3C(=O)O)ccc2N2CCCCC2)c1 (stereo not drawn)	0.7%	i	1.4e-09	-1.2%	i
CCc1ccc2c(c1)N(C[C@H](C)CN(C)C)c1ccccc1S2	0.6%[11.5 µM]	i	1e-09	-0.7%[11.4 µM]	i
c1ccc(CNc2ncnc3ccc(-c4cccnc4)cc23)cc1	0.9%	i	3.96e-08	18.0%	i
CCN1CCC[C@@H]1CNC(=O)c1cc(S(N)(=O)=O)ccc1OC	-5.7%	i	2.79e-08&4.7e-08	1.2%&0.5%&0.4%	i
CC(=O)N1CCc2cc(S(=O)(=O)NCCC(=O)NCCc3ccccc3)ccc21	-0.6%	i	1e-09	-0.2%	i
CC(=O)c1c(C)[nH]c(C(=O)NC2=NCCS2)c1C	1.0%	i	1e-09	0.7%	i
COc1ccc(-c2c(C(F)(F)F)oc3c(CN4CCN(C)CC4)c(O)ccc3c2=O)cc1	3.8%	i	1.02e-08	-5.1%	i
O=C(O)CN(c1ccc2c(c1)OCCO2)S(=O)(=O)c1ccccc1	-0.3%	i	1.77e-08	2.6%	i
CC(C)Cc1nc2n[nH]c(N)c2c2c1CCC2	/	i	9.7e-09	/	i
Cc1cc(C)cc(CC2CC(=O)N(c3nc(C)cc(C)n3)C2=O)c1 (stereo not drawn)	1.9%	i	4.8e-09	3.2%	i
CC(C)COCC1CC2(CC(C)C(=O)CC2=O)C(=O)O1 (stereo not drawn)	-0.1%	i	5.4e-09	-2.2%	i
C/C(NCCCn1ccnc1)=C(\C#N)C(N)=O	2.4%	i	2.3e-08	9.9%	i
COc1ccc(NC2=C(C(C)=O)C(c3ccc4c(c3)OCO4)C(C(C)=O)C(C)(O)C2)cc1 (stereo not drawn)	-0.5%	i	3.71e-08	14.0%	i
O=C(C1CCN(S(=O)(=O)c2ccc(F)cc2)CC1)N1CCOCC1	-1.1%	/	/	-1.5%	/
CCOC(=O)N/N=C1/C[C@@H](O)[C@@H](O)[C@@H]2[C@@H]3C(=O)N(c4cccc(Oc5ccccc5)c4)C(=O)[C@H]3CC[C@@H]12	0.4%[11.5 µM]	/	/	5.0%[11.4 µM]	/
N#Cc1c(NC(=O)c2ccncc2)sc2c1CCC2	-2.1%	i	1e-09	-1.8%	i
N#CC1=C2SCN(Cc3ccccc3)CN2C(=O)CC1c1ccc2c(c1)OCO2 (stereo not drawn)	5.6%	i	1e-09	6.0%	i

Single entries from the results shown.
CCOC(=O)N/N=C1/C[C@@H](O)[C@@H](O)[C@@H]2[C@@H]3C(=O)N(c4cccc(Oc5ccccc5)c4)C(=O)[C@H]3CC[C@@H]12 in AID923 → 0.4%[11.5 µM]
O=C(O)CN(c1ccc2c(c1)OCCO2)S(=O)(=O)c1ccccc1 in TSHR agonist → 2.6%
CC(C)Cc1nc2n[nH]c(N)c2c2c1CCC2 in A647 autofl → 9.7e-09
